Screens as filed in PubChem.
MenB inh: Mtb MenB enzyme inhibition | P9WNP5 | MenB enzyme assay, absorbance read-out; some hits fall short of the stated cut | inhibition, %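 (about 12 µg/mL by stock and volumes)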 | 100,000 tested, 0.43% active | AID 540299;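 active means mean of two replicates above 30%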;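 further: 0% = no compound and 100% = wells with inactive enzyme; the first replicate is given; strong numbers were not always called active; inactives centre near -10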
Target sequence (P9WNP5 whole entry, looked up): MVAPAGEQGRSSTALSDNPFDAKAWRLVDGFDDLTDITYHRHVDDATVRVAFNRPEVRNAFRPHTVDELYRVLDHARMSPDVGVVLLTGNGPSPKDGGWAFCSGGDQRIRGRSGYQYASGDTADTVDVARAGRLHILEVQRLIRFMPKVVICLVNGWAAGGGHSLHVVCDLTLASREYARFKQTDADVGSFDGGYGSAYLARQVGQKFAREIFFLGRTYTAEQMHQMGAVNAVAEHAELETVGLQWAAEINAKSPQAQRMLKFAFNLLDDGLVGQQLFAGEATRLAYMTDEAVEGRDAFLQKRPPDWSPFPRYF
Polio RdRp inh: inhibitors of poliovirus RNA polymerase binding and polymerization | % elongation, % (compound at 16.7 µg/mL) | 150,000 tested, 0.66% active | poliovirus polymerase elongation, fluorescence polarization; stronger effect = lower value | P03300; in the data active means % elongation below about 90%; further: some results filed as inactive read as strong as hits
Target sequence (P03300 1749-2209 limits assumed): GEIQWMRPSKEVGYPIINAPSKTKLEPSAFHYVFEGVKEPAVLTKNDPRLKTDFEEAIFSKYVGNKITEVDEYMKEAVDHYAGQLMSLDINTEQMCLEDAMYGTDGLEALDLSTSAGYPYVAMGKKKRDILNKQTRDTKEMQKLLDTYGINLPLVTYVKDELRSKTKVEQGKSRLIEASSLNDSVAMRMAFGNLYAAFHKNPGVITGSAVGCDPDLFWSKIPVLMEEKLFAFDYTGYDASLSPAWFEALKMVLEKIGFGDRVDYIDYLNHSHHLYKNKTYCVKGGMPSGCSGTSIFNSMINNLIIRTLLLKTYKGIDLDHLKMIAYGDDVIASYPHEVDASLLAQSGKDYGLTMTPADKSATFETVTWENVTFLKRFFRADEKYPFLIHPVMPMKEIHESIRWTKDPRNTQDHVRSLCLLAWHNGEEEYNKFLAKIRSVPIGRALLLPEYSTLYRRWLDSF
MbtI inh: inhibitors of Mycobacterium tuberculosis siderophore enzyme MbtI; P9WFX0; purified MbtI enzyme, fluorescence intensity read-out; inhibition, %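 (about 17 µg/mL by stock and volumes)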; 100,000 tested, 0.89% active; AID 493033;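 active means above 50% in both replicates, above 80% if mildly self-fluorescent; inactive means the rest, strongly fluorescent compounds included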;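 further: 0% = mean of negative and 100% = mean of positive controls; one replicate is shown; some compounds called inactive have numbers as strong as hits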
Polio RdRp inh intensity: further read-out of Polio RdRp inh, marked with its call; % elongation; measured here: total intensity read-out; formula for this scale not given here;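 total fluorescence in place of polarization; lower means less elongation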
Starred values were filed as active, the others as inactive; · = not tested or not shown. Compounds as they come, and some 1.7% of all compounds hit somewhere here.

compound	MbtI inh	Polio RdRp inh intensity	MenB inh	Polio RdRp inh
O=S(=O)(c1cccs1)N1CCN(c2cnccn2)CC1	-20	108	2	101
c1ccc(CCn2c3ccccc3c3nc4ccccc4nc32)cc1	-8	99	-39	101
Cc1ccc(SC2=C(N3CCOCC3)C(=O)N(c3cc(C)cc(C)c3)C2=O)cc1	-2	102	-40	102
COC(=O)c1sccc1NC(=O)CCCC(=O)O	-3	107	-22	105
CCOC(=O)N1c2ccccc2Sc2ccccc21	-8	102	-20	104
COC(=O)c1ccc([C@@H]2Nc3c(C)cccc3[C@@H]3C=CC[C@@H]32)cc1	26	109	2	101
CCOC(=O)C1CCCN(C(=O)c2ccc(CS(=O)c3ccccc3)o2)C1 (configuration not stated)	-7	108	-11	102
COC(=O)c1ccc(C(c2c(N)n(CC(C)C)c(=O)[nH]c2=O)N2CCOCC2)cc1 (configuration not stated)	2	110	-38	106
S=c1nc[nH]c2c1cnn2-c1ccc(Cl)cc1	-8	101	-19	104
COC(=O)c1cccc(N2C(=O)c3ccc(C(=O)OC)cc3C2=O)c1	0	97	-30	102
CC1=NNC(=O)CC1	-24	102	-6	101
Cc1nn(C)cc1S(=O)(=O)N1CCCc2ccccc21	-25	105	-23	103
CN1/C(=C/c2cccc[n+]2C)C=Cc2ccccc21	3	52*	-84	87*
CN1CCN(c2ccc3c(ccc4c5ccccc5[nH]c34)n2)CC1	29	102	-13	103
Cn1nc(C(=O)N2CCC(C(N)=O)CC2)c2ccccc2c1=O	8	104	-8	102
Cc1ccnc(NC(=O)Nc2ccccc2)c1	-11	103	-31	101
CCn1c(CCNC(=O)Cc2c(F)cccc2Cl)nnc1SC	-9	101	-6	99
COC(=O)c1sccc1Oc1ccc(C(F)(F)F)cc1NC(=O)Nc1ccc(Cl)cc1	-4	105	-9	103
COc1ccc(C(C)NC(=O)c2ccccc2)cc1 (configuration not stated)	-10	105	4	99
Clc1nc(Cl)nc(N2CCCCC2)n1	-11	96	7	95
COc1ccc(OC)c(NC(=O)COc2coc(CN3CCc4ccccc43)cc2=O)c1	12	107	3	103
CN1C(=O)C2(C(C#N)=C(N)N(c3ccccc3)C3=C2C(=O)CC(C)(C)C3)c2ccccc21 (configuration not stated)	-4	104	-76	107
O=c1[nH]oc(O)c1-c1ccccc1	-6	106	-36	107
CCN(CC(=O)NC1CCS(=O)(=O)C1)Cc1nc2c(Br)cc(Br)cc2c(=O)[nH]1 (configuration not stated)	-19	119	-21	112
CCOC(=O)N1CCN(C2CC(=O)N(CCc3ccc(OC)c(OC)c3)C2=O)CC1 (configuration not stated)	-14	100	-7	102

Following part:
compound	MbtI inh	Polio RdRp inh intensity	MenB inh	Polio RdRp inh
Cc1cccc(NS(=O)(=O)c2cc3c(cc2C)n(C)c(=O)c(=O)n3C)c1	6	104	-4	102
Cc1cc(-n2c(C)cc(C(=O)COC(=O)C34CC5CC(CC(O)(C5)C3)C4)c2C)no1	-1	111	3	107
COc1ccc(O)c(-c2cnc(=S)[nH]c2-c2cc(OC)ccc2OC)c1	·	102	-47	96
CCCNC(=O)N1CCCc2ccccc21	-17	106	-16	102
CCOC(=O)Cc1csc(NC(=O)CSc2nnc(-c3ccc(F)cc3)o2)n1	2	102	-43	102
COC(=O)Cc1[nH]n(-c2ccc(F)cc2)c(=O)c1C(C)=NC1CC(C)(C)NC(C)(C)C1	-6	108	-19	105
NC(=O)CC12CC3CC(C1)CC(CC(N)=O)(C3)C2	4	104	12	103
COCCNC(=O)CN1CCN(Cc2cc(C)n(CCc3ccc(Cl)cc3)c2C)CC1	4	95	10	90
CC1CC(N(CCC#N)S(=O)(=O)c2ccc(Br)cc2)CC(C)(C)C1 (configuration not stated)	-14	108	-17	104
CCC(=O)N1N=C2C(C)CN(C)C(C)C2C1c1ccco1 (configuration not stated)	-13	104	-29	99
S=C1SCN(Cc2ccccn2)CN1Cc1ccco1	54	102	-72	101
NC(=O)c1ccc(NC(=O)CC2Sc3ccccc3NC2=O)cc1 (configuration not stated)	31	132	-13	111
COc1ccc(C(=O)c2nc3ccccc3n2C(C)C)cc1OC	-4	94	-17	101
Cc1ccc(NC(=O)COc2ccc3ccccc3c2Br)cc1F	·	109	-25	104
O=C1CC(c2ccccc2)CN1C(=O)c1ccccc1 (configuration not stated)	-8	99	-7	98
CS(=O)(=O)N1CCN(c2ccccc2NC(=S)NC(=O)c2ccc(-c3cccc(Cl)c3)o2)CC1	-7	102	-10	100
CC(C)C(=O)N(Cc1ccccc1)c1ccccn1	·	109	-14	106
O=C(COc1ccc(S(=O)(=O)NCc2ccccc2)cc1)NCc1ccco1	6	103	-23	102
CCOC(=O)c1c(C2CC2)csc1NC(=O)COn1nnc2ccccc21	16	103	-43	102
O=C(c1cc2ncc(Br)cn2n1)N1CCCCC1	-1	105	-23	102
Cn1cnnc1SCc1cc(=O)c(OCC(=O)N2CCc3ccccc32)co1	-9	109	-17	107
C=CCn1c(C(C)Oc2cccc(C)c2)nc2ccccc21 (configuration not stated)	-13	98	-19	103
Cc1cc(/C=C(/C#N)C(=O)NC2CCCCC2)c(C)n1-c1ccc(I)cc1	-46	103	-29	99
CCOC(=O)c1c2c(n(-c3ccccc3)c1N)OC(=N)C(C#N)C2c1ccc(Br)cc1 (configuration not stated)	-20	107	-9	104
C=CCn1c(SCC(=O)Nc2cc(C)on2)nnc1C1COc2ccccc2O1 (configuration not stated)	-16	102	-12	101

Exported with values under each structure: part of the list above.
The line under a structure holds: MbtI inh	Polio RdRp inh intensity	MenB inh	Polio RdRp inh
- COc1ccc(C(=O)c2nc3ccccc3n2C(C)C)cc1OC
 : -4	94	-17	101
- Cc1ccc(NC(=O)COc2ccc3ccccc3c2Br)cc1F
 : ·	109	-25	104
- O=C1CC(c2ccccc2)CN1C(=O)c1ccccc1 (configuration not stated)
 : -8	99	-7	98
- CS(=O)(=O)N1CCN(c2ccccc2NC(=S)NC(=O)c2ccc(-c3cccc(Cl)c3)o2)CC1
 : -7	102	-10	100
- CC(C)C(=O)N(Cc1ccccc1)c1ccccn1
 : ·	109	-14	106
- O=C(COc1ccc(S(=O)(=O)NCc2ccccc2)cc1)NCc1ccco1
 : 6	103	-23	102
- CCOC(=O)c1c(C2CC2)csc1NC(=O)COn1nnc2ccccc21
 : 16	103	-43	102

Later entries.
compound	MbtI inh	Polio RdRp inh intensity	MenB inh	Polio RdRp inh
O=C(N=C1SCC(=O)N1c1ccccc1)c1ccco1	13	105	2	100
CCCNC(=O)Cn1nc(C)c2c(C)n(-c3ccc(C)cc3)nc2c1=O	-5	102	-19	106
Cc1ccc(C)c2c1sc(=NC(=O)c1ccc(C#N)cc1)n2C	47	106	-24	101
COc1cccc(C(=O)Nc2sc3c(c2C(N)=O)CCC3)c1	27	104	·	103
O=C(CSC1CCS(=O)(=O)C1)NCC(=O)c1ccccc1 (configuration not stated)	-5	104	-20	103
Cc1ccc(-c2nnc3n(CC(C)C)c(=O)c4ccccc4n23)s1	-25	101	-8	102
Clc1cccc(OCCN2CCCC2)c1	·	98	-1	99
Cc1cc(C)c(C)c(Cn2c(-c3ccco3)nc3ccccc32)c1C	74	103	-36	104
CC(C)c1ccc(C2NC(=S)NC3=C2C(=O)CCC3)cc1 (configuration not stated)	-1	102	-16	99
O=C(CCN1C(=O)C2C3C=CC(C3)C2C1=O)N1CCN(c2ccccc2)CC1 (configuration not stated)	-28	103	-9	101
N#Cc1c(CCl)cc(=O)n2c1sc1ccccc12	-1	113	·	112
CCOC(=O)N1CCC(NC(=O)c2cc3ccc4cccnc4c3[nH]2)CC1	-39	101	-11	101
O=C1c2ccccc2C(=O)N1CCC1=CCCCC1	-11	103	-5	100
O=C1c2ccccc2C(=O)N1CN1CCOCC1	3	102	-20	103
CN(C)CCN(C(=O)Cc1ccccc1)c1nc2cc3c(cc2s1)OCCO3	11	97	-29	101
O=C(CC1CC2CCC1C2)Nc1ccccc1I (configuration not stated)	-10	103	1	103
O=C(Nc1ccc(N2CCOCC2)c2nonc12)c1cc(-c2cccnc2)nc2ccc(Cl)cc12	0	102	2	98
CC(C)CCNC(=O)Cn1cccc1C(=O)c1ccccc1	10	104	-21	103
NC(=O)c1cccc(-c2nn[nH]n2)c1	-3	94	-1	100
Cc1ccc2nsnc2c1NC(=O)c1ccccc1	13	101	-3	101
Cc1ccc(S(=O)(=O)N(CC(=O)N2CCC(C(N)=O)CC2)c2ccccc2F)cc1	7	101	-2	101
Cc1ccc(-n2cnc3cc(NC(=O)c4ccccc4)ccc32)cc1	1	101	-3	98
CCCc1nc2ccccc2n1CC(=O)C(C)(C)C	-8	107	·	99
Cc1cc(NC(=O)COC(=O)Cn2[nH]c(=O)c3ccccc3c2=O)no1	-2	105	1	95
N=c1sc(SCc2ccccc2)nn1CC(=O)c1ccc2c(c1)OCCO2	24	99	-24	99

Additional results:
compound	MbtI inh	Polio RdRp inh intensity	MenB inh	Polio RdRp inh
CN(C)c1cccc2c(/C=N/O)ccc(N(C)C)c12	6	106	10	103
CCCC(CCC)C(=O)O	-18	100	4	98
Cc1ccc2nc(NC(=O)c3ccc4c(c3)SC3=NS(=O)(=O)CCN34)sc2c1	99	102	-8	96
CCc1nnc(NC(=O)CC(=O)Nc2ccccc2C(=O)O)s1	·	98	-5	101
CC1CCN(Cn2c(=O)n(CN3CCC(C)CC3)c3ccccc32)CC1	-2	108	17	103
CN(C)c1cccc2c(C#N)ccc(N(C)C)c12	-9	99	·	103
O=C(NCCc1nc2ccccc2[nH]1)C1CCCCC1	-5	103	-14	102
CCOC(=O)C1=C(N)n2c(s/c(=C/c3ccco3)c2=O)=C(C(=O)OCC)C1c1ccco1 (configuration not stated)	·	104	-24	104
CC(C)(C)NCc1ccc(-c2ccccc2)o1	8	102	12	100
COCC(C)NC(=O)c1cc(-c2cccs2)on1 (configuration not stated)	16	103	15	101
CCC1S/C(=N\N=C\c2ccc(O)c(OC)c2)NC1=O (configuration not stated)	15	95	3	103
COc1ccc(NC(=O)CC2NC3CCCCC3NC2=O)cc1Cl (configuration not stated)	-6	95	-24	101
CCOC(=O)C1CCN(Cn2nc(C3CC3)oc2=S)CC1	1	111	-4	107
O=C(COc1ccc(-c2nnco2)cc1)N1CCOCC1	-10	107	-29	105
Cc1nc2cc(NC(=O)Nc3ccccc3Cl)ccc2n1C	-10	101	-28	104
COc1ccc(C(O)(CCN2CCOCC2)c2ccccc2)cc1 (configuration not stated)	-15	102	2	104
Cc1cc(-c2ccc(S(=O)(=O)N3CCCC3)cc2)nc2ccccc12	-11	107	·	103
O=C(CSc1nnnn1-c1ccccc1)NC(=O)Cc1ccccc1	1	103	3	101
O=C(COC(=O)[C@@H]1CCCN1S(=O)(=O)c1ccc(Cl)cc1)Nc1ccccc1	-6	103	-28	103
C=CCNC(=O)c1c(N)n(C2CCCCC2)c2nc3ccccc3nc12	22	107	·	102
O=C(CN1C(=O)c2ccc(Br)cc2C1=O)NCC1CCCO1 (configuration not stated)	4	104	11	103
CN(Cc1nc(-c2ccccc2)no1)C(=O)C(C)(C)C	-2	103	-26	103
COC(=O)/C=C1/NCC(OC(=O)c2ccc(C(C)(C)C)cc2)CNC1=O (configuration not stated)	-12	107	8	107
CCOc1cc(/C=N/O)cc(I)c1O	17	103	4	98
COc1cc(OC)cc(-c2nnc(SC(C)C(=O)NC3(C#N)CCCCC3)o2)c1 (configuration not stated)	-4	98	-26	100

Next records:
compound	MbtI inh	Polio RdRp inh intensity	MenB inh	Polio RdRp inh
Cc1ccc(/C=N/N(C)C2=NCCN2)o1	11	106	6	105
COC(=O)c1cc(-c2ccc(C)cc2)n[nH]1	-3	102	-8	102
CCOC(=O)c1ccccc1NCn1c(=S)oc2ccccc21	·	103	-1	103
O=C(CN(Cc1ccco1)S(=O)(=O)c1ccccc1)Nc1ccccc1	5	96	0	104
Cn1nccc1NC(=O)Nc1ccc(Cl)cc1	10	101	-4	103
Cc1[nH]nc2nc3c(c(OC(=O)c4ccccc4)c12)c(=O)n(C)c(=O)n3C	·	109	-13	103
Cc1cc(C)n(-c2ccc(N=NC3=C(O)CCCC3=O)cc2)n1	21	103	-336	104
O=C(COc1cc2oc(=O)c3c(c2cc1Cl)CCC3)N1CCCC1	49	102	24	98
COCc1cc(C)nc(SCC(N)=O)c1C#N	-8	105	1	99
Nc1cc(N)nc(SCc2ccc(Cl)cc2)n1	-10	101	-6	100
CC1CC(OC(=O)C(O)c2ccccc2)CC(C)(C)N1C (configuration not stated)	-5	100	-3	102
Cc1noc(C)c1NC(=O)Nc1cc(C(F)(F)F)cc(C(F)(F)F)c1	1	99	-10	105
CCN(CC)c1nc2c(C)cccn2c(=O)c1C=C1C(=O)NC(=O)NC1=O	-6	94	-107	100
CCC(=O)Nc1cc(NC(=O)c2ccco2)ccc1C	-16	102	4	100
NC(=O)CSc1ncc(-c2ccccc2)[nH]1	-5	101	·	102
Cc1oc(-c2ccc(Cl)cc2)cc1-c1ccn[nH]1	2	100	-39	100
